Screening results: PubChem, Broad Institute
Vaccinia inh: blocks a specific stage of Vaccinia orthopoxvirus infection; Vaccinia-infected cells, mCherry/Venus stage reporter fluorescence; active compounds read low; some inactives read as strong as hits; activity change (mCherry), % (concentration not given with the values); 89,000 compounds, 0.01% hits; AID 1053133;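 active = mCherry past -33% and 40 or more points under the early reporter, replicates agreeing; inconclusive = past -33% without that gap or agreement; tested in A549 cells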;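 also: scaled between vehicle wells and reference inhibitor wells; 23 nL library stock went into each well; one replicate is shown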
Vaccinia inh Venus: also measured in Vaccinia inh; calls as there; activity change (Venus), %; measured here: Venus reporter, other viral stage;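 negative = less Venus signal; first of two replicates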
An asterisk follows results filed as active; ? = inconclusive; . = no result given.

SMILES	Vaccinia inh	Vaccinia inh Venus
CCCNC(=O)Nc1ccc2c(c1)C(=O)N(C)C[C@@H](OC)[C@H](C)CN(C(=O)c1ccccc1F)[C@@H](C)CO2	10	8
C[C@H](CO)N1C[C@H](C)[C@@H](CN(C)C(=O)Nc2ccc(F)cc2)Oc2ccc(NC(=O)NC3CCCCC3)cc2C1=O	-9	-8
COc1cccc(S(=O)(=O)Nc2ccc3c(c2)[C@@H]2C[C@H](CC(=O)NCc4ccc(Cl)cc4)O[C@H](CO)[C@@H]2O3)c1	-11	-15
CCCNC(=O)N(C)C[C@H]1Oc2cc(C#CCN(C)C)ccc2S(=O)(=O)N([C@@H](C)CO)C[C@@H]1C	12	8
Cc1noc(C)c1S(=O)(=O)Nc1ccc2c(c1)C(=O)N([C@@H](C)CO)C[C@@H](C)[C@H](CN(C)C(=O)Nc1ccc3c(c1)OCO3)OCCCC[C@H](C)O2	8	13
C[C@H](CO)N1C[C@H](C)[C@H](CN(C)C(=O)c2cnccn2)Oc2cc(C#CCC3CCCC3)ccc2S1(=O)=O	?	.
CO[C@H]1CN(C)C(=O)c2ccc(NC(=O)c3cc(C)on3)cc2OC[C@H](C)N(C(C)=O)C[C@@H]1C	9	6
C[C@@H]1CN([C@H](C)CO)C(=O)Cc2cc(NC(=O)Cn3cnnn3)ccc2O[C@H]1CN(C)C(=O)NC1CCCCC1	23	3
C[C@@H]1CCCCO[C@@H](CN(C)S(=O)(=O)c2ccc(F)cc2)[C@H](C)CN([C@H](C)CO)C(=O)c2cc(N(C)C)ccc2O1	-30	-18
C[C@H](CO)N1C[C@H](C)[C@@H](CN(C)S(=O)(=O)c2cccs2)Oc2ccc(NC(=O)CCCCCC(=O)Nc3ccccc3N)cc2C1=O	37	19
C[C@@H]1CN([C@@H](C)CO)C(=O)c2cc(C#Cc3ccc(F)cc3)cnc2O[C@H]1CN(C)C(=O)c1ccccc1F	?	.
O=C(C[C@@H]1C[C@@H]2c3cc(NC(=O)CC4CC4)ccc3O[C@@H]2[C@H](CO)O1)NCCc1ccccc1	-3	-6
CCCNC(=O)Nc1ccc2c(c1)C(=O)N(C)C[C@@H](OC)[C@@H](C)CN(C(C)=O)[C@H](C)CO2	7	25
Cc1ccc(S(=O)(=O)Nc2ccc3c(c2)C(=O)N([C@H](C)CO)C[C@@H](C)[C@H](CN(C)C(=O)Nc2cccc4ccccc24)OCCCC[C@@H](C)O3)cc1	16	15
O=C(Nc1cc(Cl)cc(Cl)c1)N[C@H]1CC[C@H](CCNS(=O)(=O)c2cccc(F)c2)O[C@H]1CO	-21	-14
C[C@@H]1CN([C@H](C)CO)C(=O)c2cc(NC(=O)Cn3cnnn3)ccc2O[C@@H]1CN(C)Cc1ccc(Oc2ccccc2)cc1	3	-2
C[C@@H]1CN([C@@H](C)CO)C(=O)c2cc(-c3ccc(C#N)cc3)cnc2O[C@@H]1CN(C)Cc1cccnc1	25	14
CC(C)NC(=O)Nc1ccc2c(c1)C(=O)N([C@@H](C)CO)C[C@@H](C)[C@H](CN(C)S(=O)(=O)c1cn(C)cn1)O2	12	1
COc1ccc2c3c(n(C)c2c1)[C@H](CO)N(Cc1cc(F)ccc1F)CC31CN(C(C)=O)C1	21	15
CC(C)NC(=O)Nc1ccc2c(c1)CC(=O)N([C@@H](C)CO)C[C@H](C)[C@@H](CN(C)Cc1ccc(C(=O)Nc3ccccc3N)cc1)O2	20	19
C[C@H](CO)N1C[C@H](C)[C@H](CN(C)S(=O)(=O)c2ccc(F)cc2)Oc2cc(C3=CCCC3)ccc2S1(=O)=O	?	.
CC(C)C#Cc1ccc([C@H]2[C@@H](CO)N3CCCCN(CC4CC4)C[C@@H]23)cc1	8	-2
Cc1cccc(S(=O)(=O)N2C[C@@H](O)COC[C@@H]3O[C@H](CC(=O)NCc4ccncn4)CC[C@H]32)c1	3	0
O=C1CN(Cc2ccccc2)C[C@H]2[C@H](c3ccc(-c4ccccc4F)cc3)[C@@H](CO)N12	-4	-1
O=C(Cc1ccccn1)N1CC(=O)N2[C@H](CO)[C@@H](c3ccc(C#CC4CCCC4)cc3)[C@H]2C1	-16	-13
O=C(C[C@H]1C[C@@H]2c3cc(NC(=O)C4CCOCC4)ccc3O[C@@H]2[C@H](CO)O1)NCc1ccccc1F	14	10
O=C(C[C@H]1CC[C@H](NC(=O)NC2CCCCC2)[C@H](CO)O1)NCc1ccc(Cl)cc1	2	7
CCNC(=O)C[C@@H]1CC[C@H]2[C@H](COc3ccc(NC(=O)C4CCOCC4)cc3C(=O)N2C)O1	9	-1
O=C(CC1CC1)N1CC(=O)N2[C@@H](CO)[C@H](c3ccc(/C=C/c4ccccc4)cc3)[C@@H]2C1	-5	-6
COc1ccc2c3c(n(C)c2c1)[C@@H](CO)NCC31CCN(Cc2cc(F)ccc2F)CC1	?	.
C[C@@H]1CN([C@@H](C)CO)C(=O)c2cc(NC(=O)Nc3ccc(C(F)(F)F)cc3)ccc2O[C@@H](C)CCCCO[C@@H]1CN(C)S(=O)(=O)c1ccccc1	-5	4
C[C@H]1CN([C@@H](C)CO)C(=O)c2cc(-c3cccnc3)cnc2O[C@H]1CN(C)C(=O)Cc1cccnc1	9	0
C[C@H]1CN([C@@H](C)CO)C(=O)c2cc(C3=CCCCC3)cnc2O[C@@H]1CN(C)Cc1ccccc1C(=O)O	6	0
O=C(Nc1ccc(F)cc1)N1CCCCN2[C@@H](CO)[C@H](c3ccc(C#CC4CC4)cc3)[C@@H]2C1	?	.
COc1ccc(NC(=O)N(C)C[C@H]2Oc3ccc(NS(=O)(=O)c4c(C)noc4C)cc3C(=O)N([C@@H](C)CO)C[C@@H]2C)cc1	23	21
Cc1ccc(-c2ccc3c(c2)O[C@@H](CN(C)C(=O)C2CC2)[C@@H](C)CN([C@H](C)CO)S3(=O)=O)cc1	-6	-14
C[C@H](CO)N1C[C@H](C)[C@H](CN(C)Cc2ccccc2)Oc2ccc(NS(=O)(=O)c3ccccc3)cc2CC1=O	?	.
C[C@H](CO)N1C[C@H](C)[C@@H](CN(C)Cc2ccncc2)Oc2ncc(-c3ccc(C#N)cc3)cc2C1=O	6	6
C[C@H]1CCCCO[C@H](CN(C)Cc2ccccc2)[C@@H](C)CN([C@@H](C)CO)C(=O)c2cc(NC(=O)C3CCCCC3)ccc2O1	?	.
Cc1noc(C)c1NC(=O)N(C)C[C@@H]1Oc2ccc(NC(=O)CCC(F)(F)F)cc2CC(=O)N([C@@H](C)CO)C[C@H]1C	4	8
N#C[C@H]1[C@@H](c2ccccc2-c2cccc(F)c2)[C@@H](CO)N1C(=O)CN1CCOCC1	14	6
C[C@@H]1CN([C@H](C)CO)C(=O)c2cc(NC(=O)Cc3ccccc3)ccc2O[C@@H]1CN(C)C(=O)NC1CCCCC1	4	-1
C[C@H](CO)N1C[C@H](C)[C@@H](CN(C)Cc2ccccc2)Oc2ccc(NS(=O)(=O)c3ccccc3)cc2CC1=O	?	.
Cc1noc(C)c1S(=O)(=O)Nc1ccc2c(c1)CC(=O)N([C@@H](C)CO)C[C@H](C)[C@@H](CN(C)Cc1ccc(C(=O)O)cc1)O2	14	18
Cc1ccc(S(=O)(=O)N[C@@H]2C=C[C@H](CC(=O)N3CCC(Cc4ccccc4)CC3)O[C@@H]2CO)cc1	?	.
N#C[C@H]1[C@H](c2ccccc2)[C@@H](CO)N1S(=O)(=O)c1ccc(-c2ccccc2)cc1	-34	-30
C[C@@H]1CN([C@@H](C)CO)C(=O)c2cc(NS(=O)(=O)c3ccccc3)ccc2O[C@@H]1CN(C)Cc1ccc(C(=O)O)cc1	7	-4
C[C@H](CO)N1C[C@H](C)[C@H](CN(C)S(=O)(=O)c2cccs2)Oc2ccc(NS(C)(=O)=O)cc2CC1=O	10	2
CO[C@H](CN(C)C(=O)C1CC1)[C@@H](C)CN(C(=O)Nc1ccc(C(F)(F)F)cc1)[C@@H](C)CO	-14	-8
O=C(C[C@H]1CC[C@@H]2[C@H](COC[C@H](O)CN2Cc2cc(F)ccc2F)O1)N1CCc2ccccc2C1	-8	-3
C/C=C/c1cnc2c(c1)C(=O)N([C@@H](C)CO)C[C@@H](C)[C@H](CN(C)C(=O)NC1CCCC1)O2	2	1
C[C@@H]1CN([C@H](C)CO)C(=O)c2cc(NS(=O)(=O)c3cccs3)ccc2O[C@H]1CN(C)S(=O)(=O)c1ccccc1	2	7
C/C=C/c1ccc([C@H]2[C@@H](CO)N(C(C)=O)[C@@H]2CNC(=O)c2ccncc2)cc1	-1	0
Cc1noc(C)c1NC(=O)Nc1ccc2c(c1)C(=O)N([C@H](C)CO)C[C@@H](C)[C@H](CN(C)C(=O)C1CCCCC1)OCCCC[C@@H](C)O2	12	1
CCC(=O)N1[C@H](CO)[C@H](c2ccccc2)C12CN(C(=O)c1ccncc1)C2	6	11
C[C@H]1CN([C@@H](C)CO)C(=O)c2cccc(NC(=O)Nc3ccc4c(c3)OCO4)c2O[C@@H]1CN(C)Cc1ccc(-c2ccccc2)cc1	-9	-4
COCC(=O)N1[C@@H](CO)[C@@H]2c3ccccc3N(C(=O)c3cccnc3)C[C@@H]21	15	11
O=C([C@H]1[C@H](CO)[C@H]2Cn3c(ccc(-c4ccccc4F)c3=O)[C@@H]1N2C(=O)C1CC1)N1CCCCC1	9	4
CO[C@@H]1CN(C)C(=O)c2ccc(NC(C)=O)cc2OC[C@H](C)N(C(=O)CN2CCOCC2)C[C@H]1C	2	3
C[C@@H]1CCCCO[C@H](CN(C)Cc2ccc(Cl)c(Cl)c2)[C@H](C)CN([C@@H](C)CO)C(=O)c2cc(NS(=O)(=O)c3ccc(F)cc3)ccc2O1	?	.

Next entries
SMILES	Vaccinia inh	Vaccinia inh Venus
CC(C)CC#Cc1ccc2c(c1)O[C@@H](CN(C)C(=O)CN(C)C)[C@@H](C)CN([C@@H](C)CO)S2(=O)=O	?	.
C[C@H]1CN([C@@H](C)CO)C(=O)c2cc(NC(=O)Nc3ccc(F)cc3)ccc2O[C@@H]1CN(C)S(=O)(=O)c1cccs1	4	1
CC(C)NC(=O)Nc1ccc2c(c1)C(=O)N([C@@H](C)CO)C[C@H](C)[C@H](CN(C)C(=O)CCC(F)(F)F)OCCCC[C@H](C)O2	21	0
C/C=C/c1ccc2c(c1)[C@H]1[C@H](CCN1Cc1ccc(F)cc1)[C@H](CO)N2	-14	-10
C[C@@H]1CN([C@@H](C)CO)C(=O)c2cccc(NC(=O)Nc3ccc(C(F)(F)F)cc3)c2O[C@H]1CN(C)Cc1ccc(C(F)(F)F)cc1	-20	-11
CN1[C@@H]2Cn3c(cccc3=O)[C@H]1[C@@H](C(=O)NCC1CC1)[C@@H]2CO	12	10
c1ncc(-c2ccc(C3[C@@H]4CN(Cc5cocn5)C[C@H]3N4)cc2)cn1 (stereo not given in full)	?	.
O=C(NC1CCCC1)[C@@H]1[C@@H](CO)[C@@H]2Cn3c(ccc(C4=CCCC4)c3=O)[C@H]1N2CC1CC1	2	10
C[C@@H]1CN([C@@H](C)CO)S(=O)(=O)c2ccc(Br)cc2O[C@@H]1CN(C)C(=O)c1cnccn1	15	9
CCCNC(=O)C[C@@H]1CC[C@@H]2[C@@H](COc3ccc(NS(=O)(=O)c4ccccc4C)cc3C(=O)N2C)O1	-4	-4
Cc1noc(C)c1S(=O)(=O)Nc1ccc2c(c1)C(=O)N([C@H](C)CO)C[C@H](C)[C@@H](CN(C)Cc1ccc(C(=O)O)cc1)OCCCC[C@@H](C)O2	14	5
O=C(C[C@@H]1C=C[C@@H](NC(=O)C2CCOCC2)[C@@H](CO)O1)Nc1nccs1	19	13
C[C@@H]1CCCCO[C@@H](CN(C)C(=O)CCC(F)(F)F)[C@@H](C)CN([C@H](C)CO)C(=O)c2cc(NC(=O)NC3CCCCC3)ccc2O1	7	2
C[C@@H]1CN([C@@H](C)CO)C(=O)c2cccc(NC(=O)Nc3ccccc3)c2O[C@H]1CN(C)Cc1ccc(-c2ccccc2)cc1	10	12
CO[C@H]1CN(C)C(=O)c2cc(NS(=O)(=O)c3ccccc3C)ccc2OC[C@H](C)N(C)C[C@H]1C	-4	0

An excerpt (hit frequency here may not be typical).
